Assay outcomes (PubChem BioAssay)
EPAC1 agonist – human EPAC1 agonism, validation | 16,000 tested, 1% active | EPAC1 Rap1b BODIPY-GDP exchange, fluorescence | O95398 | Potency, µM, without a hit: max response, positive = active, most hits filed as activators | AID 1645883; active = well fitted activation curve with a large enough effect; inconclusive = small, poorly fitted or top-dose-only effect; inactive = no such curve, though single readings can be large or run the other way;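 also: nearly all actives have a fitted effect of over 70% in size; series mostly up to about 76 or 150 µM; scaled to a cAMP control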
Target sequence (O95398 whole entry, looked up): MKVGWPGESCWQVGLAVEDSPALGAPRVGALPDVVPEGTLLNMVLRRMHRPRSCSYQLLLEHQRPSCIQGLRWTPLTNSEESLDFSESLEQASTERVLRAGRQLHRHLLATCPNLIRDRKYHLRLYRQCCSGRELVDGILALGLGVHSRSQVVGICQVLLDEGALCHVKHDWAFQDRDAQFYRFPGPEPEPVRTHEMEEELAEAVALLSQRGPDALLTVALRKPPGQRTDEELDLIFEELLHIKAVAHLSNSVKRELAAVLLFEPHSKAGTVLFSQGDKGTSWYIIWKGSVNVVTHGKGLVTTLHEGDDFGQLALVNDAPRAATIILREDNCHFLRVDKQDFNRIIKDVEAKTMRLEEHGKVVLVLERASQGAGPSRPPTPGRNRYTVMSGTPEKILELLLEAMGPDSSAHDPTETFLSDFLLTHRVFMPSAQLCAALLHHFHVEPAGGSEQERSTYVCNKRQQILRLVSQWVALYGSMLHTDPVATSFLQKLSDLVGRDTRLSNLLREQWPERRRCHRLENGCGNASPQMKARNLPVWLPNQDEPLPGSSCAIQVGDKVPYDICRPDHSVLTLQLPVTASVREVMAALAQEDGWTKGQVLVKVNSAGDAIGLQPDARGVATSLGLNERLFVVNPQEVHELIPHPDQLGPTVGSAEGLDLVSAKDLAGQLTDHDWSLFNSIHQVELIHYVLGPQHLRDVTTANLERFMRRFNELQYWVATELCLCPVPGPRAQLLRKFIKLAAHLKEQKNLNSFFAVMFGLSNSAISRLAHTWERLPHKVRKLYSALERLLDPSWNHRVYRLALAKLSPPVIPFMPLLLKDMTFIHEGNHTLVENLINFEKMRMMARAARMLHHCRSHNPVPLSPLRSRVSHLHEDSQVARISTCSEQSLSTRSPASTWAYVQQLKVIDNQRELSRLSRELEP
* = called active by the depositor; ? = inconclusive; & = joins results of further samples; [ ] = dose if it differs, or a comment. % is scaled to controls: 0 for no effect and ±100 for the full control effect; potency is read from the fitted curve at half-maximal effect. Some of the compounds tested; count on the stated rates, not on these rows.

mol	EPAC1 agonist
CC(C)(C)NC(=O)[C@H]1CC[C@H]2[C@@H]3CC=C4C=C(C(=O)O)CC[C@]4(C)[C@H]3CC[C@]12C	-60%[inhibitor]
CC(C)=CCCC1=CC[C@H](C(=O)O)[C@H](C(=O)O)C1	-35%[inhibitor]
COc1cccc(Cn2c(=O)cnc3cnc(Nc4cccc(OC)c4)nc32)c1	28%
CC(C)NC(=O)N1CCCC2(CCN(C(=O)c3cccc(F)c3)CC2)C1	-16%
Cc1noc(C)c1C(=O)N1CCC2(CCCN(C(=O)Nc3cccc(F)c3)C2)CC1	-68%[inhibitor]
O=C1CCN(Cc2ccccc2)S(=O)(=O)c2c(F)cc(F)cc21	?
Cc1cc(-c2ccnc(-n3ncc(C(=O)N4CCCCC4c4cccnc4)c3C3CC3)n2)c(C)s1 (configuration not stated)	-7%
CCCCCCCCCCCCC(O)C(=O)O (configuration not stated)	-8%
C[C@](N)(C(=O)O)c1ccc(-c2nn[nH]n2)cc1	7%
COCC(=O)N1CCC2(CCCN(C(=O)Nc3cccc(F)c3)C2)CC1	10%
O=C1CCC[C@@H]2CC(N(Cc3cc4ccccc4s3)c3ccccc3)C[C@@H]3CCN1[C@H]23 (some centres not stated)	100µM*
COc1ccccc1C(=O)N[C@@H]1c2ccccc2C2(CCN(Cc3ccc4c(c3)OCO4)CC2)[C@H]1O	-2%
Cc1ccc(C)c(OCCCC(C)(C)C(=O)O)c1	15%&-13%&-30%
Cc1ccc(S(=O)(=O)N[C@@H](Cc2ccccc2)C(=O)CCl)cc1	9%
CCCCC[C@H](O)/C=C/[C@H]1C=CC(=O)[C@@H]1CCCCCCC(=O)O	-7%
CCN(CC)CCNC(=O)c1cc(S(C)(=O)=O)ccc1OC	1%&25%&-28%
OC1(c2ccc3c(c2)CN(Cc2nccs2)CCO3)CCN(c2ccccc2F)CC1	?
CNC(=O)Oc1ccc2c(c1)[C@@]1(C)CCN(C)[C@@H]1N2C	5%
NC1(C(=O)O)CC(C(=O)O)C1 (configuration not stated)	-11%&-8%&8%
COc1cc(CNc2nc(C)c(-c3ccn(C4Cc5ccccc5C4)n3)s2)cc2c1OCO2	?
O=C(Nc1ccccc1)N1CCC2(CC1)CCN(C(=O)c1cccc(F)c1)CC2	-38%[inhibitor]
CCCCCCCCCCCCCCCCCCOC[C@H](COP(=O)([O-])OCC[N+](C)(C)C)OC	-12%&-31%
C[C@@H](CSc1ccccc1)CN1CC[C@H](O)CCC1=O	19%
COc1ccc(-n2c(=O)c(-c3ccc(Cl)cc3)nc3cncnc32)cc1	-41%[inhibitor]
COc1cc(O)ccc1CN1CCc2nnc(C(C)NC(=O)c3cc(F)ccc3F)n2CC1 (configuration not stated)	-13%
COCC(=O)Nc1cc(C(=O)N2CCc3ccccc3C2)c2c(c1)nc(-c1ccncc1)n2C	-14%
COc1cccc(-c2ccc3ncnc(NC4CCNCC4)c3c2)c1	0%
COCC(=O)N1CCC2(CCCN(c3cccc(-c4ccccc4)c3)C2)CC1	?
CCCC1CC(C(=O)N[C@H](C(C)O)C2OC(SC)[C@@H](O)C(O)C2O)N(C)C1 (some centres not stated)	15%
O=C(Nc1ccc(O)cc1)c1ccccc1O	7%

Quoted at random: two records from the list, in no set order.
mol	EPAC1 agonist
C[C@](N)(C(=O)O)c1ccc(-c2nn[nH]n2)cc1	7%
NC1(C(=O)O)CC(C(=O)O)C1 (configuration not stated)	-11%&-8%&8%

Back to the main list, starting six compounds before the break.
mol	EPAC1 agonist
COc1cc(O)ccc1CN1CCc2nnc(C(C)NC(=O)c3cc(F)ccc3F)n2CC1 (configuration not stated)	-13%
COCC(=O)Nc1cc(C(=O)N2CCc3ccccc3C2)c2c(c1)nc(-c1ccncc1)n2C	-14%
COc1cccc(-c2ccc3ncnc(NC4CCNCC4)c3c2)c1	0%
COCC(=O)N1CCC2(CCCN(c3cccc(-c4ccccc4)c3)C2)CC1	?
CCCC1CC(C(=O)N[C@H](C(C)O)C2OC(SC)[C@@H](O)C(O)C2O)N(C)C1 (some centres not stated)	15%
O=C(Nc1ccc(O)cc1)c1ccccc1O	7%
CCN(CC)C(=O)/C(C#N)=C/c1cc(O)c(O)c([N+](=O)[O-])c1	-3%
CC(=O)Nc1ccc(OC(C)=O)cc1	-15%
CC(=O)C1CCC2C3CCC4=CC(=O)CC[C@@]4(C)C3CC[C@]12C (some centres not stated)	-18%
CC(O)[C@@H]1NC(=O)[C@H](Cc2ccccc2)NC(=O)[C@H](C(C)O)NC(=O)[C@H](CCCCN)NC(=O)[C@H](Cc2c[nH]c3ccccc23)NC(=O)[C@H](Cc2ccccc2)NC(=O)[C@H](Cc2ccccc2)NC(=O)[C@H](CC(N)=O)NC(=O)[C@H](CCCCN)NC(=O)[C@@H](NC(=O)CNC(=O)[C@H](C)N)CSSC[C@@H](C(=O)O)NC(=O)[C@H](CO)NC1=O (some centres not stated)	-11%
OC(CN1CCCC1)c1ccccc1 (configuration not stated)	-11%
C[C@]12CCC3c4ccc(OC(=O)c5ccccc5)cc4CCC3C1CCC2=O (some centres not stated)	14%
COc1cc2nc(N(C)C)c(CNC3CCOC(C)(C)C3)cc2c(OC)c1OC (configuration not stated)	-2%
COc1ncc2nc(CCc3ccccc3)c(=O)n(C3CC3)c2n1	-49%[inhibitor]
Cc1noc(C)c1-c1nc(NC2CC2)c2ccccc2n1	-14%
Cc1oc(-c2cccc(NC(=O)c3ccccn3)c2)nc1CNC(=O)C#Cc1ccccc1	3%
O=S(=O)(O)CC(S)CS (configuration not stated)	1%
Oc1ccc(C2Oc3cc(O)cc(O)c3CC2O)cc1 (configuration not stated)	15%
CC(=O)NCCNc1cc(-c2ccccc2CN(C)C)ncn1	-24%
CC(C)CN1CCCC2(CCN(C(=O)c3cnccn3)CC2)C1	-74%[inhibitor]
CN/C(=C\[N+](=O)[O-])NCCSCc1csc(CN(C)C)n1	2%

Sorted by length of the SMILES (smallest number first): some entries from above
mol	EPAC1 agonist
CC(=O)Nc1ccc(OC(C)=O)cc1	-15%
COCC(=O)Nc1cc(C(=O)N2CCc3ccccc3C2)c2c(c1)nc(-c1ccncc1)n2C	-14%
O=C1CCC[C@@H]2CC(N(Cc3cc4ccccc4s3)c3ccccc3)C[C@@H]3CCN1[C@H]23 (some centres not stated)	100µM*

Remaining list, next part.
mol	EPAC1 agonist
COc1ccccc1C(=O)Nc1cccc(N2CCC(NCc3cnn(-c4ccccc4)n3)CC2)c1	11%
COc1ccc2c(c1)c(CC(=O)OCC(=O)O)c(C)n2C(=O)c1ccc(Cl)cc1	-17%&-16%
COc1cccc(C2(CC(=O)N3CCN(c4nonc4C)CC3)CC(=O)N(C3CCCC3)C2=O)c1 (configuration not stated)	0%
CO[C@@]12C[C@@H](COC(=O)c3cncc(Br)c3)CN(C)[C@H]1Cc1cn(C)c3cccc2c13	-17%
COc1cccc(-c2ccc3ncnc(NCc4cccnc4)c3c2)c1	?
COCCn1c(=O)c(C)nc2cnc(OCc3ccccc3)nc21	6%
CN1CCN(c2ncc3nc(-c4ccc(F)cc4)c(=O)n(Cc4cccs4)c3n2)CC1	7%
CO[C@H]1[C@H](NC(=O)c2ccco2)c2ccccc2C12CCN(Cc1cccn1-c1ccccn1)CC2	3%
COc1cc(-c2noc(C)c2/C=C/c2cccc([N+](=O)[O-])c2)cc(OC)c1OC	?
CCCCN1CC[C@H]2C=CC[C@@H](C(=O)NC3CCCCC3)[C@H]2C1=O	-9%
O=C(NCC(O)CO)c1c(I)c(C(=O)NCC(O)CO)c(I)c(N(CCO)C(=O)CO)c1I (configuration not stated)	-1%
CCn1c(-c2ccccc2F)nc2cc(NC(C)=O)cc(C(=O)N3CCNC(=O)C3CC(=O)OC)c21 (configuration not stated)	-16%
Cc1ccc(O)c(N=Nc2ccccc2)n1	-14%&-13%&-33%
CC(=C(CCOP(=O)(O)O)SC(=O)c1ccccc1)N(C=O)Cc1cnc(C)nc1N	17%
COc1ccc(CN2CC[C@H]3C=CC[C@@H](C(=O)NCCc4ccccc4)[C@H]3C2=O)cc1OC	-27%

(list continues)
molecule	EPAC1 agonist
O=C(O)C1CCC[C@@H]2[C@@H]3CC(CN12)[C@@H]1CCCCN1C3 (some centres not stated)	1%
O=C(Nc1ccc(Cl)c(C(F)(F)F)c1)[C@@H]1CC=C[C@@H]2CCN(C3CCCCC3)C(=O)[C@@H]21	13%
c1ccc2c(c1)CN1CCCC1=N2	21%&-85%
c1nc(NCCN2CCOCC2)c2cc(-c3ccc4c(c3)OCO4)ccc2n1	19%
CC1(C)C=Cc2cc3ccc(=O)oc3cc2O1	9%
COc1ccc(-c2nc3cnc(N4CCNCC4)nc3n(C3CC3)c2=O)cc1	-49%[inhibitor]
O=C(Nc1ccccc1)[C@@H]1CC=C[C@@H]2CCN(C3CCCCC3)C(=O)[C@@H]21	?
COc1ccccc1OCC(O)CN1CCN(CC(=O)Nc2c(C)cccc2C)CC1 (configuration not stated)	-1%&-11%
COC(=O)CNC(=O)c1cnn(-c2ncc3c(n2)-c2ccccc2CCC3)c1C1CC1	-2%
CCCCC(C)(O)C/C=C/[C@H]1[C@H](O)CC(=O)[C@@H]1CCCCCCC(=O)O (some centres not stated)	-13%
COc1cccc(C2(CC(=O)N3CCCOc4c(cccc4OC)C3)CC(=O)N(C)C2=O)c1 (configuration not stated)	-11%
C=C1C[C@@]23CC[C@H]4[C@@](C)(CCC[C@@]4(C)C(=O)OC4OC(CO)C(O)C(O)C4O)[C@@H]2CC[C@]1(OC1OC(CO)C(O)C(O)C1OC1OC(CO)C(O)C(O)C1O)C3 (some centres not stated)	0%
CC(=O)N1CCC2(CC1)CCN(C(c1ccccc1)c1ccccc1)CC2	-63%[inhibitor]
CN1CCN(c2ncc3nc(-c4cc(F)cc(F)c4)c(=O)n(Cc4cccs4)c3n2)CC1	-1%
Cc1noc(C)c1-c1cncnc1Nc1ccccc1	-30%
S=C1SCN(Cc2ccccc2)CN1Cc1ccccc1	?
N[C@H](C(=O)O)c1ccc(C(=O)O)cc1	-16%&8%
CC(C)[C@H]1COCCS(=O)(=O)N1Cc1cccc([N+](=O)[O-])c1	-20%
COCCn1c(=O)c(-c2ccccc2)nc2cnc(N3CCNCC3)nc21	-31%[inhibitor]
CCC1(C2CCN(Cc3ccoc3)CC2)NC(=O)N(CC2COc3ccccc3O2)C1=O (configuration not stated)	-23%
C=C[C@]1(C)CC(=O)[C@@]2(O)[C@@]3(C)C(O)CCC(C)(C)C3C(O)C(OC(C)=O)[C@@]2(C)O1 (some centres not stated)	24%
CN(CC(=O)N1CCOCC1)Cc1c(Cl)cccc1NC(=O)c1ccccc1	-16%
CC1(C)S[C@@H]2[C@H](NC(=O)C(N)c3ccccc3)C(=O)N2[C@H]1C(=O)OC1OC(=O)c2ccccc21 (some centres not stated)	?
Cc1ncc2c(c1CNC(=O)c1ccccc1F)CCN(C(=O)c1[nH]c3ccc(Cl)cc3c1C)C2	?
Cc1ccccc1	1%
COc1cccc(Nc2ncc3nc(-c4ccc(F)cc4)c(=O)n(C)c3n2)c1	-72%[inhibitor]
OC[C@@H](O)[C@H](O)[C@H](O)[C@@H](O)CO	-2%&-28%
COc1ccc(CNc2ncncc2-c2cccc(C#N)c2)c(OC)c1	3%
O=C1C[C@@H]2c3c(cccc3CN1Cc1ccccc1)C[C@@H](O)[C@H]2O	13%
CCC1COCCS(=O)(=O)N1Cc1cccc(C(F)(F)F)c1 (configuration not stated)	-55%[inhibitor]
CNc1nc(-c2ccc(N(C)C)cc2)nc2ccccc12	?
COc1cc(-c2cc(=O)c3ccccc3o2)ccc1O	-21%
COc1ccc(-c2ccnc(-n3ncc(C(=O)NCc4cccnc4)c3C3CC3)n2)cc1F	-14%
CN1CCCC(CN2c3ccccc3Sc3ccccc32)C1 (configuration not stated)	-2%
O=C(N/N=C\c1ccccc1O)c1ccccc1O	-5%
O=c1cnc2cnc(Nc3ccccc3)nc2n1CCc1ccccc1	-11%
COC(=O)[C@@H]1[C@H]2C[C@H]3c4[nH]c5ccccc5c4CCN3C[C@@H]2CC[C@@H]1O	0%&-13%
OCCN1CCN(CC/C=C2/c3ccccc3Sc3ccc(C(F)(F)F)cc32)CC1	2%&-23%
Cc1cc(O)cc(=O)o1	26%
COc1c2c(cc3c1C(CC(O)C(C)C)N(C)CC3)OCO2 (configuration not stated)	-10%
CN(C)c1ccc(CCC2C=Cc3ccccc32)cc1 (configuration not stated)	28%
CS(=O)(=O)c1ccc(C2=C(c3ccccc3)C(=O)OC2)cc1	5%
COc1ccccc1C(=O)N1CCOc2ccc(C(C)(O)CCn3cccn3)cc2C1 (configuration not stated)	9%
O=C(c1cccnc1)C1CCCN(Cc2ccc3c(c2)CN(C(=O)c2cccc(Cl)c2)CCO3)C1 (configuration not stated)	-8%
CC/C(=C\c1ccccc1)c1cccc2oc3ccccc3c12	?
CC(=O)OC1CC[C@]2(C)C(CC(OC(C)=O)[C@]3(C)C2CC[C@@]2(C)C(c4ccoc4)OC(=O)C4O[C@]432)C1(C)C (some centres not stated)	13%
CC(C)(C)NC(=O)[C@H]1CN(Cc2cccnc2)CCN1C[C@@H](O)C[C@@H](Cc1ccccc1)C(=O)N[C@H]1c2ccccc2C[C@H]1O	-54%[inhibitor]
CO[C@H]1[C@H](NC(=O)c2cccs2)c2ccccc2C12CCN(Cc1cccn1-c1ccccn1)CC2	-9%
O=c1c(-c2ccc(Cl)cc2)nc2cnc(N3CCNCC3)nc2n1Cc1cccs1	-1%
